From PubChem
MT1-MMP act inh = MT1-MMP (human) activation inhibition. P50281. HT1080 RFP-PRO-GFP cells, GFP/RFP ratio fluorescence, overnight; percent of plate control window, DMSO zero. GFP/RFP ratio change, % at 20 µM. actives 0.061% (n = 360,000);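 active = GFP/RFP ratio change of at least 30% with cell ATP level not reduced by more than half and red fluorescence within 50% of control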; note: strong numbers were not always called active
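Compound: 20 µM single dose, 1% DMSO / System: HT1080 RFP-PRO-GFP cells / Controls: DMSO and RFP-L50D-GFP cell wells / Read-out basis: GFP/RFP fluorescence ratio / Schedule: overnight compound exposure at 37 °C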
eIF4H inh = inhibitors of RNA binding by human eIF4H. eIF4H fluorescence polarization binding assay. Q15056. actives 0.94% (n = 290,000). AID 2012. inhibition, % at 35 µM;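 active = 50% or more with normal probe brightness, or confirmed in later tests; about a fifth of its hits are not listed in these tables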;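 note: calls also rest on retests at 20 µM and on dose response follow-up; 0% = protein and probe with vehicle and 100% = probe without protein; strong numbers were not always called active; many hits fall short of the cut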
CSC inhib = blocks cancer stem cells; cancer stem cell-like cells viability, luminescence; inhibition, % at 7.5 µM; actives 1.1% (n = 300,000); AID 2717;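 active = mean at 75% or more and at least half the replicates too; tested in HMLE shEcad cells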;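 note: 0% = median of negative and 100% = median of positive control wells; the first replicate is given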
Yeast UUG start = alters start codon recognition fidelity in yeast | S. cerevisiae UUG-firefly luciferase reporter, luminescence/redox ratio | activity score, % at 18.7 µM | actives 0.13% (n = 350,000) | AID 602363;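 active = replicate mean at a twofold rise or more, about +100% in these data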;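 note: firefly luciferase made from a UUG start codon reports start codon fidelity; reporter light over untreated wells divided by growth signal over untreated wells; some hits fall short of that in this replicate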
HIV Env fusion = HIV envelope-mediated fusion inhibition; HeLa-JRFL Env/CEM21 cell fusion, luciferase; inhibition, % at 12.3 µM; actives 1.1% (n = 360,000); AID 651610;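 active = mean replicate inhibition score of at least 50 and every replicate individually at or above 50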;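 note: 0% = plate neutral controls and 100% = maraviroc near 300 nM; one replicate is shown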
Rce1 inhib = blocks yeast Ras-converting enzyme | yeast membranes, quenched prenylated peptide cleavage fluorescence | calls only | actives 0.27% (n = 290,000) | Q03530;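 active = fall in fluorescence gain of 50% or more versus controls, with final raw signal at or below 3038400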;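 note: plate controls were neutral control wells for no effect and wells lacking membranes for full effect; tested at 10 µM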
Target sequence (Q03530 whole entry, looked up): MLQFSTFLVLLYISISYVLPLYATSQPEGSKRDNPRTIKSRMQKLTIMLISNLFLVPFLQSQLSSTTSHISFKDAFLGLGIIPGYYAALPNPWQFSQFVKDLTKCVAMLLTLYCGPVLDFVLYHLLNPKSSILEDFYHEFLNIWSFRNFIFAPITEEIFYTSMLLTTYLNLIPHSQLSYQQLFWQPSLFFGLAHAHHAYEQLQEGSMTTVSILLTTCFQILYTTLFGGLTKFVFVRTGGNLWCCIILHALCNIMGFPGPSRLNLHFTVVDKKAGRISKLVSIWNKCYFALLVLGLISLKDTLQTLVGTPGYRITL
PABP FP inh = blocks human PABP binding to poly(A) RNA; P11940; fluorescence polarization; inhibition, % at 35 µM; actives 1% (n = 290,000); AID 2014;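 active = 50% or more with normal probe brightness, or confirmed in later tests; about a fifth of its hits are not listed in these tables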;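 note: calls also rest on retests at 20 µM and on dose response follow-up; controls were probe without protein and protein plus probe with vehicle; some compounds called inactive have numbers as strong as hits; many hits fall short of the cut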
eIF4H inh retest = recorded beside eIF4H inh, whose call it bears; inhibition, %; compound at 20 µM; confirmation average;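 mean of two retest wells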
PABP FP inh retest = further read-out of PABP FP inh, marked with its call; inhibition, %; compound at 20 µM; confirmation repeats;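 mean of two retest wells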
MT1-MMP act inh RFP = also measured in MT1-MMP act inh; calls as there; RFP signal change, %; measured here: RFP expression control read;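 0 = vehicle wells; hits needed this value within 50% of zero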
* marks the source's active call; other numbers are inactive results; i = inactive; nt = not tested or not shown. This is a subset; the hit share may differ from the screen's.

SMILES	MT1-MMP act inh	MT1-MMP act inh RFP	eIF4H inh	CSC inhib	Yeast UUG start	HIV Env fusion	Rce1 inhib	PABP FP inh	others
Cc1nc2c(-c3ccc(F)cc3)c(C)nn2c(C)c1CCC(=O)N1CCN(c2ccccn2)CC1	-1.3	5.1	-1.7	25.2	19.9	4.3	i	-1.5
O=[N+]([O-])c1ccccc1OCCCOc1cccc2cccnc12	-2.4	-4.7	-0.9	-7.5	-13.7	-24.0	i	7.9
O=C(C1CCCCC1)N1C[C@@H](n2cc(-c3ccc(F)cc3)nn2)[C@H](O)C[C@@H]1c1ccc(Cl)cc1	3.0	-17.1	nt	nt	-7.4	3.6	nt	nt
COc1ccc(C2CC(=O)Oc3cc(OC)c(OC)c(OC)c32)cc1 (stereo not drawn)	3.5	6.8	nt	nt	-3.5	14.5	nt	nt
Cc1onc(-c2c(F)cccc2Cl)c1C(=O)Nc1ccc(S(=O)(=O)Nc2ncccn2)cc1	0.1	4.0	-11.8	nt	-9.9	nt	i	11.5
CCCOc1ccc(N2CC(C(=O)Nc3ccccc3C(=O)NC)CC2=O)cc1 (stereo not drawn)	2.1	-0.1	0.8	-15.9	5.1	6.2	i	-2.9
O=C(CCCc1ccccc1)Nc1nnc(C(F)(F)F)s1	2.4	2.5	3.4	2.5	-1.7	11.8	i	-6.7
CCOC(=O)N1CCN(C(=O)C(c2ccccc2)c2ccccc2)CC1	5.8	6.1	6.2	5.1	nt	nt	i	-2.1
Brc1ccccc1-c1nnc2sc(Cc3ccccc3)nn12	0.4	-1.7	-9.9	-9.7	-15.1	57.4*	i	7.8
N/C(=N\OC(=O)COc1cc(Cl)c(Cl)cc1Cl)c1ccccn1	4.7	-0.1	7.2	1.9	-13.7	-103.2	i	-0.5
O=C1CC(c2ccsc2)Sc2ccccc2N1 (stereo not drawn)	-1.2	0.2	-1.2	-20.0	-6.6	-0.1	i	-0.4
O=C(NCC1(N2CCCCC2)CCCCC1)c1cccc(S(=O)(=O)Nc2ccc(F)cc2)c1	-2.1	3.0	nt	nt	0.2	-0.5	nt	nt
CC(=O)c1ccc(C(=O)Nc2nnc(-c3ccc(Cl)cc3)o2)cc1	4.9	2.4	14.1	14.0	-15.5	-0.8	i	9.4
COC(=O)C(C(=O)OC)C(CC(=O)c1ccc(C)cc1)c1cc(OC)c(OC)c(OC)c1 (stereo not drawn)	-1.4	2.3	-0.9	6.9	-0.6	12.4	i	2.7
CCOc1ccc(-c2noc(=O)[nH]2)cc1	-3.3	0.3	-3.9	11.1	-6.1	nt	i	-1.9
CC(NC(=O)OCc1ccccc1)C(=O)NCC1CCCO1 (stereo not drawn)	1.7	1.8	-1.6	-4.5	-10.7	-5.5	i	-5.9
COc1ccc(NC(=O)c2c(-c3c(Cl)cccc3Cl)noc2C)c(OC)c1	2.3	0.4	-7.0	20.6	-4.3	-4.0	i	-5.7
O=S(=O)(NNC(=S)Nc1ccc(S(=O)(=O)Nc2ncccn2)cc1)c1ccc(Br)cc1	-0.9	4.8	3.8	-6.3	-17.1	3.8	i	8.7
COc1cc(/C=C2/C(=O)N(c3ccc([N+](=O)[O-])cc3)N=C2N2CCOCC2)ccc1O	4.9	-0.7	-0.9	9.1	-19.2	-5.2	i	3.6
C/C(=N\NC(=O)c1ccc(NS(=O)(=O)c2cccs2)cc1)c1ccc2c(c1)OCO2	2.6	1.5	0.0	1.8	nt	-12.4	i	-6.1
O=C(/C=C/c1cccc(F)c1)N1CCN(c2ccccn2)CC1	3.1	5.8	76.8	nt	nt	-12.2	i	1.0	eIF4H inh retest=3.9;PABP FP inh retest=26.0
O=C(CSc1nnc2c3ccccc3c3ccccc3c2n1)Nc1ccccc1	nt	nt	0.3	nt	nt	nt	i	19.9
COc1cc2c(cc1OC)CN(CC(=O)Nc1ccc(C)c(S(=O)(=O)N3CCOCC3)c1)CC2	-0.5	-6.4	3.6	10.8	-6.9	0.5	i	8.2
Nc1nc(SCc2nnc(SCC(=O)O)n2-c2ccccc2)nc2sc3c(c12)CCCC3	5.3	9.0	-9.8	nt	-8.4	-96.8	i	32.8
COc1ccc(N2CCN(CC(=O)Nc3ccc(C)cc3Br)CC2)cc1	-0.8	-0.8	nt	nt	-0.4	6.7	nt	nt

Next section (four carried over from the part before).
SMILES	MT1-MMP act inh	MT1-MMP act inh RFP	eIF4H inh	CSC inhib	Yeast UUG start	HIV Env fusion	Rce1 inhib	PABP FP inh	others
O=C(CSc1nnc2c3ccccc3c3ccccc3c2n1)Nc1ccccc1	nt	nt	0.3	nt	nt	nt	i	19.9
COc1cc2c(cc1OC)CN(CC(=O)Nc1ccc(C)c(S(=O)(=O)N3CCOCC3)c1)CC2	-0.5	-6.4	3.6	10.8	-6.9	0.5	i	8.2
Nc1nc(SCc2nnc(SCC(=O)O)n2-c2ccccc2)nc2sc3c(c12)CCCC3	5.3	9.0	-9.8	nt	-8.4	-96.8	i	32.8
COc1ccc(N2CCN(CC(=O)Nc3ccc(C)cc3Br)CC2)cc1	-0.8	-0.8	nt	nt	-0.4	6.7	nt	nt
COC(=O)C(C)(C)ONC(=O)Nc1ccccc1	0.4	4.7	0.5	4.0	nt	-1.3	i	-15.3
Cc1ccc(S(=O)(=O)Nc2ncc(C(F)(F)F)cc2Cl)cc1	-2.4	0.9	-8.8	9.8	nt	5.3	i	-8.8
CCSc1nc2sc3c(c2c(=O)n1CC)CCC3	1.6	-0.6	12.8	22.7	0.5	-5.7	i	-4.7
O=C(/C=C/c1ccccc1)OCc1cnc(Cl)s1	0.5	0.0	-10.8	-5.3	nt	0.3	i	3.5
COc1ccccc1CNC(=O)c1cn(C)c(=O)c2cc(OC)c(OC)cc12	2.0	-0.7	-3.4	-5.4	-3.2	14.8	i	1.2
CC(=O)c1nc2ccccc2n1S(=O)(=O)c1ccc(C)cc1	-4.1	6.5	-1.9	-7.1	-19.5	-78.9	i	13.2
CCOc1cc(C(=O)NCc2ccc(C)cc2)ccc1OCC(=O)N1CCOCC1	-0.7	1.1	-5.8	nt	nt	-63.9	i	-3.2
COc1ccc(C)cc1C(=O)CCC(=O)Nc1ccccc1N1CCOCC1	0.1	1.9	-9.9	35.5	-16.5	-9.5	i	17.1
O=C1CN(c2ccc(Cl)cc2)C(=O)CN1NC(=S)Nc1ccc(Cl)cc1	7.3	5.1	12.0	-4.4	-19.6	nt	i	-7.4
COc1cc(CN2CCN(C(=O)c3ccccc3F)CC2)cc(OC)c1OC	-1.2	-5.0	8.4	-12.3	-19.1	11.7	i	5.3
CC(C)(C)c1ccc(NC(=O)c2cc(C3CCCN(C(=O)CCc4ccccc4)C3)on2)cc1 (stereo not drawn)	-1.7	-20.2	nt	nt	1.4	29.5	nt	nt
CC(C)(C)OC1NS(=O)(=O)OCC1NCOC(Cl)(Cl)Cl (stereo not drawn)	0.0	1.0	-7.3	18.4	-20.5	20.7	i	3.8
COc1ccc(CN(C(=S)Nc2ccccc2)C2CC(=O)N(c3ccc(Cl)cc3)C2=O)cc1 (stereo not drawn)	3.2	-2.5	2.1	18.1	-9.6	nt	i	0.4
N#Cc1cc2c(nc1SCC1COc3ccccc3O1)CCC2 (stereo not drawn)	-4.9	-5.9	-0.9	15.9	nt	nt	i	7.0
COc1cccc(OC)c1C(=O)Nc1sc2c(c1C(N)=O)CCCC2	1.5	0.1	nt	-11.1	-15.2	2.9	i	nt
CC1=C(C(=O)OCc2ccccc2)C(/C=C/c2ccccc2)NC(=S)N1 (stereo not drawn)	-7.3	-14.3	-4.0	nt	-21.7	-14.4	i	18.5
CCOC(=O)C1CCN(C(=O)c2cc3cc(Br)ccc3oc2=O)CC1	1.2	3.4	1.1	nt	nt	2.8	i	-3.3
CC(C)(C)NC(=O)CN(Cc1cccs1)C(=O)CN1C(=O)C(=O)c2ccccc21	-1.0	5.0	5.5	-12.8	3.8	-2.6	i	-5.3
COc1ccc(N(CC(=O)Nc2ccccc2C(=O)N2CCCC2)S(=O)(=O)c2ccccc2)cc1	-5.8	-3.3	-5.9	-8.5	-1.4	15.4	nt	-7.6
COc1ccc(C)cc1Nc1cc(C)nc2nc(C)nn12	-0.1	-1.6	-7.8	13.1	-3.4	-52.1	i	8.9
CN(C(=O)COC(=O)c1cc(=O)[nH]c2ccccc12)c1c(N)n(Cc2ccccc2)c(=O)[nH]c1=O	0.3	3.8	nt	0.2	-8.2	3.0	i	nt
COc1ccccc1OCC(=O)NNC(=O)Nc1ccccc1	-0.4	-2.2	nt	-11.3	nt	-7.5	i	nt
CC(=O)N1CCc2cc(Br)cc(S(=O)(=O)N3CCN(c4ccccn4)CC3)c21	-2.3	2.0	-4.6	-9.9	-26.0	29.0	i	-0.8
CC(=O)N1CC(C)Sc2ccc(S(=O)(=O)NC(C)c3ccccc3)cc21 (stereo not drawn)	-4.6	-23.5	-1.6	-20.5	-7.8	2.5	i	-5.7
CC(=O)Nc1ccc(NC(=O)CSc2ccc([N+](=O)[O-])cn2)cc1	3.7	-1.4	-1.3	-5.8	nt	-11.7	i	1.0
SMILES	MT1-MMP act inh	MT1-MMP act inh RFP	eIF4H inh	CSC inhib	Yeast UUG start	HIV Env fusion	Rce1 inhib	PABP FP inh	others
CCCCOC(=O)c1ccc(NC(=S)NC(=O)c2ccco2)cc1	-0.7	1.8	2.8	-4.3	-20.3	-28.2	i	14.1
O=C(CN1CCN(C(=O)c2cccc(S(=O)(=O)N3CCCC3)c2)CC1)Nc1ccc(F)cc1	0.6	-2.0	nt	nt	-23.6	38.8	nt	nt
Cc1cc(OC(C)C(=O)NCCCn2ccnc2)c2c(C)cc(=O)oc2c1 (stereo not drawn)	-0.6	-1.4	-15.3	-16.9	7.7	-9.1	i	-8.5
COc1ccc(NC(=O)NC(C)c2ccc3c(c2)OCO3)c(OC)c1 (stereo not drawn)	-1.3	0.5	-7.2	-1.6	-13.3	3.7	i	-1.7
O=C(COc1ccccc1)Nc1cccc2c1CCCC2	1.0	-0.6	-0.5	-10.6	nt	nt	i	-7.5
O=S(=O)(c1ccc(F)cc1)N1CCN(S(=O)(=O)c2ccc3c(c2)OCCO3)CC1	0.1	-3.7	nt	-3.9	-14.2	4.2	nt	nt
CC(C)NC(=S)N/N=C/c1ccc(C(C)(C)C)cc1	-8.6	-10.4	4.4	43.0	-27.9	11.6	i	-12.5
O=C(O)CSCNC(=O)C12CC3CC(CC(C3)C1)C2	2.2	8.2	1.6	-9.3	-9.5	5.2	i	4.5
COc1ccc(Cl)cc1NC(=O)COC(=O)c1ccc(C)o1	-1.3	-1.4	nt	-2.3	-3.1	0.8	nt	nt
C/C(CC(=O)Nc1c(C)cc(C)cc1C)=N\NC(=O)Cc1ccccc1	3.5	-1.0	3.4	nt	-7.3	7.2	i	-3.2
N#CC(C#N)=C1NC2(CCCCC2)Cc2ccccc21	-6.7	-2.0	-0.9	-5.8	-3.9	-0.6	i	1.5
COc1cc(-c2nc3cc(C)ccn3c2NC2CCCCC2)ccc1-c1ccc(C(C)=O)cc1	-26.4	-15.7	nt	21.9	-17.3	6.1	i	nt
O=C(NCc1ccc(F)cc1)c1cc(S(=O)(=O)N2CCCCC2)c[nH]1	1.6	2.2	-7.9	-1.0	-5.3	-29.7	i	-9.3
NC(=O)C12C(=O)NC(=O)C1(C(=O)O)C21CCCC1 (stereo not drawn)	4.8	0.4	nt	nt	-12.2	0.0	nt	nt
CC(OC(=O)[C@@H](NS(=O)(=O)c1ccccc1)C(C)C)C(=O)c1c(N)n(C)c(=O)n(C)c1=O (stereo partly drawn)	1.0	-1.5	nt	nt	-9.3	21.6	nt	nt
CC(=O)c1ccc(S(=O)(=O)N2CCCC2)cc1	-2.6	-3.5	7.5	-14.7	-19.5	-61.3	i	5.5
CCS(=O)(=O)Nc1cccc(-c2nc3cccnc3s2)c1C	-0.6	-10.6	-9.1	-3.8	-10.1	8.9	i	-15.2
